ClpP mod – qHTS Assay for Activators of ClpP. ATP-dependent Clp protease proteolytic subunit (Bacillus subtilis (strain 168)), P80244. purified B. subtilis ClpP, FRET peptide cleavage, 20 min. Potency, µM (doses to about 57.5 µM), for inactives: at the top dose activity change, negative = active. actives 1.9% (n = 340,000); active = well fitted falling curve with a large enough effect; inconclusive = small, poorly fitted or top-dose-only effect; inactive = no such curve, though single readings can be large or run the other way; further: potency means the concentration at half of the fitted maximal effect; the source files actives as falling curves though it sought activators and does not explain the sign; nearly all actives have a fitted effect of over 65% in size; many hits overshoot -100%
Target sequence (P80244 whole entry, looked up): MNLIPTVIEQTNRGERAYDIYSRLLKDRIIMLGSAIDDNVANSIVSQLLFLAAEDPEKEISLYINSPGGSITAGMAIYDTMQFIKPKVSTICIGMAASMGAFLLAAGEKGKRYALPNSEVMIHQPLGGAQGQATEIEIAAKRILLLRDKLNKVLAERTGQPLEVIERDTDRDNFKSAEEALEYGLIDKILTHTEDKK
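FRET quenching reversal measured ClpP activation: 10 microg/mL B. subtilis ClpP at pH 8 with the FRET-FV decapeptide, read at 430 nm after 320 nm excitation. The 20-min minus 0-min signal was scaled between DMSO/no-enzyme wells and ADEP (5.8 microM final).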
TRPV1 potentiator – HTS Assay for Compounds that Act as Potentiators of the Vanilloid Receptor 1; actives 0.02% (n = 320,000); AID 540277, 2011; potentiation, % at 8.33 µM; TRPV1-expressing cells, Fluo-8 calcium influx, capsaicin EC20 potentiation; host cell line not named in the record; control for the full effect not named in the record; Transient receptor potential cation channel subfamily V member 1 (Homo sapiens), Q8NER1; active means potentiation above 80%; inconclusive means 30% to 80%; inactive means below 30%; further: 0% is about no effect
Target sequence (Q8NER1 whole entry, looked up): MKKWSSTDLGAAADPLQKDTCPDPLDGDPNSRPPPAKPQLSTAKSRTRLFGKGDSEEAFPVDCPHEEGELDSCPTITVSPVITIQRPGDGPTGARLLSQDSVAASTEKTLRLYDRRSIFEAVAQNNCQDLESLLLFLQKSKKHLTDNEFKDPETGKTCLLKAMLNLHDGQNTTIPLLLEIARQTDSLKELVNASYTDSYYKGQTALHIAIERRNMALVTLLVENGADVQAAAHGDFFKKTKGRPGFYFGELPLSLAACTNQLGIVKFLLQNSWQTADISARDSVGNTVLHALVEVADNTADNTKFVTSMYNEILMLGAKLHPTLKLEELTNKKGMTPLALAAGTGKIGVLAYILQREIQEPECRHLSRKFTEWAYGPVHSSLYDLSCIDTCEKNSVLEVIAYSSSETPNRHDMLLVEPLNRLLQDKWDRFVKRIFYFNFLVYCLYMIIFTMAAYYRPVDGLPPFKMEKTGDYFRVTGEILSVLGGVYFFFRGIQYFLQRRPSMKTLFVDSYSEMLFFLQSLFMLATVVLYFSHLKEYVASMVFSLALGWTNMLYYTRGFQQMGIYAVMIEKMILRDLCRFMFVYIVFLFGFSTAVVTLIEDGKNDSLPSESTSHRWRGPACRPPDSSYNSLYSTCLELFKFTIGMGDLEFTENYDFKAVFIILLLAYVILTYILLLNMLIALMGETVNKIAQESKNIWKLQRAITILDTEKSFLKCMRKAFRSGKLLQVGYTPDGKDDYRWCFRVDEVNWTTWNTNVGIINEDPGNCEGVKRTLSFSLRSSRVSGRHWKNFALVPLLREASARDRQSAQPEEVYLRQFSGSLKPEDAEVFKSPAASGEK
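TRPV1-expressing cells were cultured overnight at 35.5C and loaded with Fluo-8 calcium dye for 40 to 90 min at room temperature. After a 10 s baseline, compound was added and calcium influx was read kinetically for 3 min (ex 480/em 520 nm).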
PINK1 modulator – A Quantitative High throughput Screen to Identify Chemical Modulators of PINK1 Expression; PINK1 immunofluorescence, high-content cytometry, 24 h; actives 0.2% (n = 410,000); Potency, µM (series often up to 76.6 µM), for inactives: at the highest dose activation (PINK1 increase), hits mostly activators; active = well fitted activation curve with a large enough effect; inconclusive = small, poorly fitted or top-dose-only effect; inactive = flat fitted curve, though single readings scatter; cell line not stated here;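 further: potency means the concentration at half of the fitted maximal effect; % of control where 0% means no effect; nearly all actives have a fitted effect of over 65% in size; a mitochondrial uncoupler was the plate control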
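Measures PINK1 amount and localization on or inside mitochondria by immunofluorescence. Stable cells get compounds at 5 concentrations for 24 hours before fixation and staining; CCCP controls included.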
Menin-MLL FL inh – qHTS Assay for Inhibitors Targeting the Menin-MLL Interaction in MLL Related Leukemias: Competition With Fluorescein Labeled MLL-derived Peptide | Fluorescence polarization, fluorescein-MLL peptide displacement from menin | FP activity change, % at 61.4 µM | 290,000 tested, under 10 active; inconclusive = falling polarisation curve, or a change in total fluorescence; inactive = total fluorescence flat and polarisation flat or rising; no compound was filed as active; the % refers to the polarisation; negative = inhibition;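 further: % of control where 0% means no effect; inhibitors lower the polarisation; unlabelled MLL peptide was the positive control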
Sfp PPTase inh – qHTS Assay for Inhibitors of Bacillus subtilis Sfp phosphopantetheinyl transferase (PPTase) | Potency, µM, for the others: max response, negative = inhibition, most hits filed as inhibitors | AID 1490, 2009 | 4'-phosphopantetheinyl transferase ffp (Bacillus subtilis), Q9F4F7 | Biochemical Sfp PPTase activity, qHTS | actives 3.5% (n = 310,000); active means well fitted inhibition curve with a large enough effect; inconclusive means small, poorly fitted or top-dose-only effect, or another doubt; inactive means no such curve, though single readings can be large or run the other way;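 further: the enzyme is Sfp with the accession as filed and its product quenches rhodamine fluorescence; potency means the concentration at half of the fitted maximal effect; 0% = enzyme reaction without inhibitor and -100% = no enzyme wells; top concentration of the series not given in the record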
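Compounds were incubated with enzyme (final 15 nM) for 15 min at room temperature before substrate addition started the reaction. Fluorescence at 525 nm excitation, 598 nm emission was recorded immediately and after 30 minutes.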
TRPML1 agonist – qHTS for Agonists of the Human Mucolipin Transient Receptor Potential 1 (TRPML1); Mucolipin-1 (Homo sapiens), Q9GZU1; activation, % (concentration not given with the values); TRPML1-expressing cells, Ca2+ dye fluorescence, FDSS; host cell line not named in the record; reference of the full effect not given here; actives 0.12% (n = 410,000); in the data active = activation above about 50%; inconclusive = about 30% to 50%; inactive = below about 30%; further: 0% is about no effect; the text of the record puts the active cut at 80%
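In this qHTS format, compounds were pin-transferred onto Ca8-dye-loaded TRPML1-DL cells induced with Tet overnight, and intracellular Ca2+ fluorescence was recorded kinetically for 110 s after a 10 s baseline. A subsequent 4uM final 54-4 (EC80) addition followed by a second 110 s read served as the antagonist phase.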
TRPML1 blocker – qHTS for Inhibitors of the Human Mucolipin Transient Receptor Potential 1 (TRPML1); Mucolipin-1 (Homo sapiens), Q9GZU1; TRPML1-inducible cells, Ca2+ dye fluorescence, FDSS; stronger effect = lower value; inhibition of EC80 agonist-evoked calcium signal; activity change, negative = inhibition, % (concentration not given with the values); actives 0.02% (n = 390,000); AID 624415, 2012; in the data active means activity change below about -50%; inconclusive means about -30% to -50%; inactive means above about -30%;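 further: stimulus is agonist 54-4 at its EC80 concentration; on the % scale 0 is the no-effect control and ±100 the full control effect; compound concentration not given in the record; the text of the record puts the active cut at -80%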
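TRPML1-DL cells, Tet-induced overnight (~16 h, 37 °C) at 1,500 cells/well, were loaded with Ca8 no-wash dye plus quencher for 45-90 min at room temperature. Compounds were pinned during FDSS kinetic reading; agonist 54-4 at EC80 (4 uM final) then added.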
The depositor's hits bear a star; ? = inconclusive; / = no result given; [ ] = dose if it differs, or a comment.

compound	ClpP mod	TRPV1 potentiator	PINK1 modulator	Menin-MLL FL inh	Sfp PPTase inh	TRPML1 agonist	TRPML1 blocker
COC(=O)c1sccc1NC(=S)Nc1ccc(F)cc1	2.3%	5.8	3.9%	7.6	3.3%	-0.6	5.0
O=C(Nc1nccs1)C1CC(=O)N(c2ccccc2Cl)C1 (configuration not stated)	-0.2%	12.9	14.0%[38.3 µM]	-1.4	12.6%	2.8	-18.1
CCNC(=S)N(CCc1c(C)[nH]c2ccc(C)cc12)Cc1cccs1	/	-19.1	?	7.4	27.1%	0.0	29.6
COC(=O)c1sccc1S(=O)(=O)N(CC(=O)NCc1ccc(F)cc1)c1ccc(C)c(C)c1	-0.5%	/	7.1%	/	/	3.6	3.7
C[C@@H]1CN([C@@H](C)CO)C(=O)CCCn2nncc2CO[C@H]1CN(C)C(=O)C1CCCCC1	2.0%	/	0.6%	/	/	-0.2	37.7
Cc1cc(C)nc(N/N=C/C2=C(O)CC(c3ccc(F)cc3)CC2=O)n1 (configuration not stated)	0.4%	3.8	-1.4%	?	8.1%	2.9	-3.3
CC1(c2ccc(Cl)cc2)NC(=O)N(CC(=O)N2CCCC2)C1=O (configuration not stated)	0.7%	2.9	3.9%[38.3 µM]	-3.6	-12.1%	2.3	-11.4
COC(=O)[C@]12C(=O)NC[C@H](CN1c1ccc(C(F)(F)F)cc1)N2C	0.9%	/	0.9%	/	/	-0.1	-4.5
CC1CCCC(C)N1C(=O)c1cc(-c2ccco2)on1 (configuration not stated)	/	-3.1	7.7%	-0.7	-2.1%	0.3	5.9
COc1cc(F)ccc1-c1csc(C(NC(C)=O)c2cccc(F)c2)n1 (configuration not stated)	-33.8%	/	1.5%	/	/	-0.3	/
CCOC(=O)CC(=O)CSc1ccc2nnc(-c3cccc(F)c3)n2n1	?	3.2	-3.7%[38.3 µM]	0.5	-3.2%	0.6	11.0
CC(C)n1c(SCC(=O)Nc2ccccc2)nc2c1c(=O)[nH]c(=O)n2C	0.8%	2.3	-1.7%	2.0	1.8%	0.7	45.4
CCOC(=O)c1cccc(NC(=O)Cn2c(CC(=O)N3CCCC3)nc3ccccc32)c1	/	-0.1	/	3.9	-2.2%	/	/
CC(C)CNC(=O)c1cc2nc(C3CC3)cc(C(F)(F)F)n2n1	-2.8%	/	2.7%	/	/	-0.7	-4.7
CN(C)C(CNC(=O)c1ccc2ccccc2c1)c1ccco1 (configuration not stated)	-0.3%	-0.3	-1.8%	-6.9	5.1%	0.5	5.7
CN(Cc1ccc(Cl)cc1)C(=O)CNC(=O)C12CC3CC(CC(C3)C1)C2	-0.2%	-8.5	3.4%	/	/	0.5	42.2
c1cc(CNC2C3CC4CC(C3)CC2C4)ccn1 (configuration not stated)	/	14.6	0.4%	2.2	-0.8%	0.2	-10.8
CC(c1nnc(SCC(=O)Nc2cccnc2Cl)n1Cc1ccccc1)N(C)C (configuration not stated)	/	-5.4	-2.3%	-4.3	13.0%	2.9	9.2
O=C(NCc1ccco1)c1cc([N+](=O)[O-])cc([N+](=O)[O-])c1	-0.1%	7.0	1.3%	-3.9	12.2%	0.6	-2.9
CCN1C(=O)[C@H]2[C@H]3CN=C(SC)N3[C@@](CC)(C(=O)OC)[C@H]2C1=O	1.3%	/	?	/	/	-0.7	1.6
Cc1ccc(C)n1C(CC(=O)O)c1ccc(C#N)cc1 (configuration not stated)	/	-3.6	0.5%	-3.9	18.4%	0.1	27.1
CCN1C(=O)C2(C(C(=O)c3cc4ccccc4o3)=C(O)C(=O)N2CCCN(C)C)c2ccccc21 (configuration not stated)	/	-8.7	-1.4%	0.5	32.5%[activator]	1.1	-10.2
CCOc1cc(/C=N/NC(=O)COc2ccccc2C)ccc1OC(=O)c1cccs1	-1.8%	-4.3	-0.8%[38.3 µM]	4.1	2.5%	1.7	-0.6
CCOCCCNC(=O)c1cc(-c2cccnc2)nc2ccc(S(=O)(=O)N3CCC(C)CC3)cc12	0.7%	-10.7	0.0%	/	19.8%	-0.8	-6.2
Cc1c(S(=O)(=O)NCc2ccccc2)c(=O)n(C)c(=O)n1C	-0.5%	-7.0	-0.4%	1.1	12.5%	1.1	-0.6
CC1CCC(N2CCN(c3ccc([N+](=O)[O-])cc3)CC2)CC1 (configuration not stated)	-3.0%	-22.4	2.7%	-13.8	-5.8%	0.1	5.7
CC(=O)NCCNc1nc(-c2ccc(C(=O)N(C)C)cc2)nc2ccccc12	/	/	-0.3%	3.4	9.8%	/	/
COCCNC(=O)CN1C(=O)COc2ccc(S(=O)(=O)N3CCOCC3)cc21	-11.5%	/	2.7%	/	/	-0.2	-0.9
O=C(COC(=O)c1cccc(S(=O)(=O)NCc2ccccc2)c1)c1ccccc1	-1.7%	9.8	0.0%	0.1	-1.8%	3.6	18.2
COc1ccc(CCN2CNc3c(c(=O)n(C)c(=O)n3C)C2)cc1	-5.9%	11.1	1.1%	0.0	23.3%	1.0	18.6
COc1ccc(-c2ccc(NS(=O)(=O)c3ccc([N+](=O)[O-])cc3)cc2)nn1	-1.1%	15.4	-2.1%	/	6.8%	0.5	-6.9
C[C@H]([C@@H](N)C(=O)N[C@@H](C(=O)O)[C@@H]1O[C@H](n2ccc(=O)[nH]c2=O)[C@@H](O)[C@H]1O)[C@@H](O)c1ccc(O)cn1	-8.9%	-2.4	1.2%	-21.0	56.2µM*	0.2	-1.1
COc1cc(/C=N/NC(=O)CNC(=O)c2ccncc2)ccc1OC(C)=O	-0.8%	-9.2	-0.4%	/	9.4%	-0.2	-0.6
Cc1cc(NC(=O)c2ccccc2)n(C)n1	1.2%	20.1	-1.3%	5.7	9.9%	0.1	8.2
Cc1onc(-c2ccccc2)c1C(=O)NC(=S)Nc1sc2c(c1C#N)CCCC2	-5.9%	11.7	3.4%	4.4	44.7µM*	0.4	-3.4
COc1cc(C(=O)NCC(=O)N/N=C/c2ccc(-c3cccc([N+](=O)[O-])c3)o2)cc(OC)c1OC	2.1%	8.0	4.0%	3.1	-14.0%	-1.2	14.8
Cn1c(=O)c2c(ncn2CC(=O)NC2CCCCC2)n(C)c1=O	-2.1%	0.7	-0.9%	1.4	4.0%	-0.6	0.3
CC(=O)Nc1ccc(NC(=O)c2ccc3c(c2)CCN3S(=O)(=O)c2ccc(Cl)cc2)cc1	0.6%	/	15.5%	/	/	0.6	29.3
COc1cccc2c(=O)n(CC(=O)N3CCCc4ccccc43)ccc12	-17.7%	21.5	0.3%	0.3	14.9%	-0.6	3.7
O=c1oc2ccccc2c(N2CCCC2)c1[N+](=O)[O-]	/	-11.2	-1.5%	-3.5	5.2%	-0.1	13.4
Cn1c(CNc2ccc(Br)cc2)nc2ccccc21	/	4.7	3.8%	1.4	6.3%	0.5	-14.8
CCC(CC)NC(=O)c1cc(OC)c(OC)c(OC)c1	-2.3%	0.5	5.6%	2.1	10.8%	-1.4	7.0
Cc1cc(Br)ccc1NC(=O)c1ccco1	0.5%	-11.9	0.5%	0.6	6.6%	-0.3	4.1
COc1ccc(C(C(=O)NCC2CCCO2)N(Cc2cccs2)C(=O)c2snc(C(N)=O)c2N)cc1OC (configuration not stated)	-20.7%	6.3	-0.5%	/	8.1%	1.0	14.8
O=[N+]([O-])c1cnc(N2CCCCC2)c([N+](=O)[O-])c1	-0.8%	-1.9	1.6%	3.5	6.8%	1.9	0.6
CC1Cc2ccccc2N1C(=O)CSc1nnc(CNc2ccccc2)o1 (configuration not stated)	-1.3%	1.2	-7.1%[38.3 µM]	-1.4	11.0%	-0.6	-14.3
CCOC(=O)c1cnc(SC)nc1Nc1cccc(F)c1	-0.1%	-24.6	-0.2%[38.3 µM]	-0.1	-14.2%	1.7	6.9
O=C(c1ccco1)c1nnn(Cc2ccccc2)c1-c1ccccc1	-0.6%	13.3	7.2%[38.3 µM]	-0.5	-20.5%	1.9	-15.4
CC1CN(C(=O)N(C)C)CCN1C(=O)N(C)C (configuration not stated)	0.4%	5.9	-1.6%	0.8	19.1%	-0.4	8.3
O=C(Nc1cc(=O)c2ccccc2o1)N1CCCCC1	-22.5%	-17.2	2.9%	4.3	-10.4%	3.2	24.2

Carrying on.
compound	ClpP mod	TRPV1 potentiator	PINK1 modulator	Menin-MLL FL inh	Sfp PPTase inh	TRPML1 agonist	TRPML1 blocker
N#Cc1ccc(CN2CC3(CCN(C(=O)c4ccncc4)CC3)C2)cc1	/	/	0.3%	-5.5	23.6%	/	/
CC(=O)N1CCN(CCN(CC2C(C)C=C(C)CC2C)C(C)=O)CC1 (configuration not stated)	-2.8%	1.8	-0.7%	2.1	13.1%	-0.2	-13.2
NS(=O)(=O)c1ccc(CCNC(=O)c2cccc3ccccc23)cc1	/	8.7	2.1%	-0.2	17.9%	2.4	-23.7
Cc1ccc(S(=O)(=O)CC(O)COc2ccccc2C#N)cc1 (configuration not stated)	-0.1%	6.9	-3.0%	0.9	1.4%	0.2	-6.5
COc1ccc(NC(=O)CSc2nnc(Cc3cccn3C)n2-c2ccc(C)cc2)cc1OC	-0.8%	-12.5	-6.0%[38.3 µM]	3.7	-5.0%	2.3	3.5
C/C(=N\NC(=O)c1ccc(Cl)c(S(=O)(=O)Nc2ccccc2Cl)c1)c1ccncc1	-1.8%	19.1	2.2%	1.2	-4.7%	-0.6	-13.8
COc1ccc(-c2nn(-c3ccccc3)cc2C2CC(c3cccs3)=NN2C(=O)CCCC(=O)O)cc1 (configuration not stated)	?	1.5	1.4%	5.0	-12.0%	0.6	11.1
O=C(CSc1cccc(C(F)(F)F)c1)Nc1ccc(Cl)cc1Cl	0.3%	8.7	1.0%	5.8	5.8%	-0.7	-11.3
